High-throughput results deposited in PubChem by National Center for Advancing Translational Sciences (NCATS).
LASV entry inh – blocks Lassa virus binding to or entry into cells. Lassa virus pseudotype entry inhibition, cell reporter; control for the full effect not named in the record. Potency, µM (titrated, usually from 37.9 µM), inactives show at the top dose activity change, negative = inhibition, usual class: inhibitors. hit rate 1.2% among 300,000; active means well fitted inhibition curve with a large enough effect; inconclusive means small, poorly fitted or top-dose-only effect, or effect the other way; inactive means flat fitted curve, though single readings scatter; tested in HEK293 cells; further: on the % scale 0 is the no-effect control and ±100 the full control effect; nearly all actives have a fitted effect of over 50% in size; luciferase read-out
Cruzain inh Det – blocks cruzain activity in presence of Triton detergent; purified cruzain, Z-FR-AMC fluorescence, 0.01% Triton; Potency, µM, for the others: max response, negative = inhibition, usual class: inhibitors; hit rate 0.43% among 200,000;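 further: plate controls were neutral wells for no effect and buffer without enzyme for full effect; nearly all actives have a fitted effect of over 40% in size; top concentration of the series not given in the record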
Target sequence (P25779 123-467 limits assumed): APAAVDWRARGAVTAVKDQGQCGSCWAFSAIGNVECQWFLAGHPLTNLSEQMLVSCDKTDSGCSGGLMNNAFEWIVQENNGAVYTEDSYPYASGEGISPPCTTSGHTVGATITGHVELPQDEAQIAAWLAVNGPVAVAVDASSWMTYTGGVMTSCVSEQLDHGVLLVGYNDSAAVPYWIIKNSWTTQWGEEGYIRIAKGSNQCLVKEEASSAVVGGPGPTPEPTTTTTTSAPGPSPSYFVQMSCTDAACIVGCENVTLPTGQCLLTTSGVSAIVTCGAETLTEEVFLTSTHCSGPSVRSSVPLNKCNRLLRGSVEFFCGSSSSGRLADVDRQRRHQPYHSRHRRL
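Steps: dispense cruzain (1.5 nM final) in acetate buffer pH 5.5 with DTT and 0.01% Triton X-100; pin-transfer compounds; incubate 15 min RT; add Z-FR-AMC (2 uM final); read fluorescence every 30 s, using the 60 s intensity change.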
Cruzain noTriton – inhibitors of Trypanosoma cruzi cruzain without detergent | P25779 | purified cruzain, Z-FR-AMC fluorescence, no detergent | Potency, µM, for the others: max response, negative = inhibition, actives largely listed as inhibitors | hit rate 2.3% among 200,000 | AID 1476;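 further: plate controls were enzyme without inhibitor for no effect and buffer without enzyme for full effect; nearly all actives have a fitted effect of over 40% in size; top concentration of the series not given in the record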
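Purified cruzain at 1.5 nM, pre-incubated 15 min with compound at room temperature in 100 mM sodium acetate pH 5.5, 5 mM DTT, 0.00005% Triton X-100. Reaction started with 2 uM Z-FR-AMC; AMC fluorescence increase over 60 s gives rate.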
StopGo reporter – lowers the luciferase signal of an FMDV 2A StopGo reporter | human cells with a luciferase reporter of 2A StopGo recoding; control for the full effect not named in the record | AID 1159524 | Potency, µM (doses to about 57.9 µM), inactives show top-dose signal change, negative = less light | hit rate 1.2% among 410,000; active = well fitted falling curve with a large enough effect; inconclusive = small, poorly fitted or top-dose-only effect; inactive = no such curve, though single readings can be large or run the other way; tested in HEK293T cells; further: on the % scale 0 is the no-effect control and ±100 the full control effect; nearly all actives have a fitted effect of over 45% in size; luciferase light after 4 h
MARV entry inh – Marburg virus entry inhibition. Marburg virus pseudotyped entry inhibition, cell reporter; control for the full effect not named in the record; about a third of the inactives were read at about 46 µM. Potency, µM (highest dose often 37.8 µM), for inactives: top-dose activity change, negative = inhibition, actives largely listed as inhibitors. hit rate 1.8% among 300,000. AID 540276; active = well fitted inhibition curve with a large enough effect; inconclusive = small, poorly fitted or top-dose-only effect, or effect the other way; inactive = flat fitted curve, though single readings scatter; tested in HEK293 cells; about a fifth of its hits are not listed in these tables; further: on the % scale 0 is the no-effect control and ±100 the full control effect; luciferase read-out
RE007 growth inh – less growth of the S. pombe RE007 Vpr strain; hit rate 0.21% among 360,000; AID 651644; S. pombe RE007 Vpr strain, BacTiter-Glo ATP luminescence, 24 h; control for the full effect not named in the record; Potency, µM (series often up to 92.2 µM), for the others: at the highest dose activity change, negative = less growth; active = well fitted falling curve with a large enough effect; inconclusive = small, poorly fitted or top-dose-only effect; inactive = no such curve, though single readings can be large or run the other way;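 further: on the % scale 0 is the no-effect control and ±100 the full control effect; nearly all actives have a fitted effect of over 50% in size; the assay follows cell death caused by Vpr and the record does not say whether a fall means rescue or toxicity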
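Fission yeast RE007 carrying one integrated HIV-1 vpr copy, seeded at OD 0.01 in PMG+AL medium with 23 nL pinned compound. Grown 24 h at 30 degrees; viability read by BacTiter-Glo luminescence after 5 min.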
NS1 function inh – blocks influenza NS1 protein function | hit rate 0.4% among 270,000 | Potency, µM (highest dose often 46.1 µM), for inactives: at the highest dose activity, positive = more growth | S. cerevisiae slowed by influenza A NS1, growth recovery by OD600; active means well fitted rising curve with a large enough effect; inconclusive means small, poorly fitted or top-dose-only effect; inactive means no such curve, though single readings can be large or run the other way; further: nearly all actives have a fitted effect of over 50% in size
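In this qHTS, NS1 from influenza A is expressed in budding yeast, where it slows growth. Cells are switched from glucose to 2% galactose medium (pH 6.0, -URA), treated with compound, and growth recovery is read at OD600.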
SARS PLP yeast – SARS-CoV PLP inhibition in yeast. Potency, µM (highest dose often 32.9 µM), without a hit: top-dose activity, positive = growth rescue. S. cerevisiae expressing SARS-CoV PLpro, growth rescue; control for the full effect not named in the record. hit rate 0.19% among 330,000; active means well fitted rising curve with a large enough effect; inconclusive means small, poorly fitted or top-dose-only effect; inactive means no such curve, though single readings can be large or run the other way; further: 0% is about no effect; nearly all actives have a fitted effect of over 55% in size; growth read by luminescence after 48 h
An asterisk follows results filed as active; & = joins results of further samples; [ ] = another dose, or the depositor's remark. Unless noted, the call rests on the fitted dose curve; in most records, active means well fitted curve in the direction sought with a large enough effect; inconclusive means small, poorly fitted or top-dose-only effect, or another doubt; inactive means no such curve, though single readings can be large; an effect the other way counts as inactive or inconclusive. Potency means the concentration at half of the fitted maximal effect.

For O=C(CSc1nc(=O)n(Cc2ccccn2)c2c1CCC2)Nc1cccc(Cl)c1 the results were LASV entry inh -20%[46.1 µM], Cruzain inh Det -4.5%, Cruzain noTriton inconclusive and StopGo reporter -21%.
For O=[N+]([O-])c1cccc(NC(=S)N2CCN(S(=O)(=O)c3ccccc3)CC2)c1 the results were LASV entry inh -27%, StopGo reporter -3%, MARV entry inh -6%, RE007 growth inh -11%, NS1 function inh -3% and SARS PLP yeast 6%.
O=C(CN1C(=O)NC2(CCCC2)C1=O)Nc1ccc(F)cc1 was read as LASV entry inh 1%, Cruzain inh Det -1.3%, Cruzain noTriton 0%, StopGo reporter -6%, MARV entry inh 22%, RE007 growth inh -30%, NS1 function inh 0% and SARS PLP yeast 9%.
Cc1ccccc1-c1nn(-c2ccc(F)cc2F)cc1CNCCCN(C)C was read as LASV entry inh inconclusive, StopGo reporter -11%, MARV entry inh 3.5µM*, RE007 growth inh 0%, NS1 function inh 0% and SARS PLP yeast 1%.
`CCN(CC)c1ccc(N=Cc2cc(Br)ccc2O)cc1` gave LASV entry inh -1%, StopGo reporter -4%, MARV entry inh 1%, RE007 growth inh -20% and SARS PLP yeast 1%.
CCC(C)[C@H](NC(=O)C1CCN(C(=O)[C@H](Cc2ccccc2)NC(=O)OC(C)(C)C)CC1)C(=O)O (stereo not given in full) was read as StopGo reporter 0%, RE007 growth inh -5%, NS1 function inh 9% and SARS PLP yeast 4%.
For CCOC(=O)c1c(C)[nH]c(N=Nc2ccccc2)c1C the results were LASV entry inh inconclusive, Cruzain inh Det -13%, Cruzain noTriton inconclusive, StopGo reporter 32%[activator], MARV entry inh -14%, RE007 growth inh -27%, NS1 function inh -82% and SARS PLP yeast -27%.
NN=C1c2ccccc2-c2ccc(N)cc21 was read as LASV entry inh -10%, StopGo reporter -6% and RE007 growth inh inconclusive.
CCn1c(=O)cc(OCC(=O)Nc2nc(C)cs2)c2ccccc21 was read as Cruzain inh Det -0.5%, Cruzain noTriton -4%, StopGo reporter -25%, RE007 growth inh -1%, NS1 function inh inconclusive and SARS PLP yeast -2%.
`COc1ccc(NC(=O)c2cccc(N3C(=O)C4CCC(C)CC4C3=O)c2)c(OC)c1` (stereo not given) gave LASV entry inh 22%[46.1 µM], StopGo reporter -22%, MARV entry inh -5%[46.1 µM], RE007 growth inh -6%, NS1 function inh -4% and SARS PLP yeast -1%.
For Cc1ccc(CSCC(=O)N2CCN(c3ccccc3)CC2)cc1 the results were LASV entry inh inconclusive, Cruzain inh Det -7.1%, Cruzain noTriton 5%, StopGo reporter -24%, MARV entry inh inconclusive, RE007 growth inh -25%, NS1 function inh -12% and SARS PLP yeast -4%.
For Nc1nc(=S)c2[nH]c(=S)[nH]c2[nH]1 the results were LASV entry inh -7%[46.1 µM], StopGo reporter -3%, MARV entry inh -2%[46.1 µM] and RE007 growth inh -2%.
`CC(C)c1ccc(S(=O)(=O)N2CCN(C(=O)C3CCCC3)CC2)cc1` gave StopGo reporter inconclusive, MARV entry inh -25%[46.1 µM], RE007 growth inh 6%, NS1 function inh -5% and SARS PLP yeast -5%.
`CCOc1ccccc1NC(=O)c1cc(S(=O)(=O)N2CCN(CC)CC2)ccc1Cl` gave LASV entry inh 0%, StopGo reporter -10%, MARV entry inh -1%, RE007 growth inh -5%, NS1 function inh 3% and SARS PLP yeast -3%.
Screening COCCCn1c(SCC(=O)NC2CCCC2)nnc1-c1ccco1 returned LASV entry inh -9%, Cruzain inh Det 3.0%, Cruzain noTriton -4%, StopGo reporter 0%, MARV entry inh -3%, RE007 growth inh 11%, NS1 function inh 10% and SARS PLP yeast 21%.
For NC(=O)C(c1ccccc1)c1ncc(C(F)(F)F)cc1Cl (stereo not given) the results were LASV entry inh -1%, Cruzain inh Det 6.2%, Cruzain noTriton -1%, StopGo reporter 16%, MARV entry inh 26%, RE007 growth inh 9%, NS1 function inh -1% and SARS PLP yeast 0%.
CC(C)CCOc1ccc(C(=O)Nc2sc3c(c2C#N)CCCCC3)cc1 was read as LASV entry inh inconclusive, Cruzain inh Det 0.0%, Cruzain noTriton 12% and StopGo reporter -21%.
COCCn1c(CNC(=O)c2cccc(N(C)C)c2)nc2cccnc21 was read as LASV entry inh 2%[46.1 µM], Cruzain inh Det 0.7%, Cruzain noTriton -1% and StopGo reporter 20%.
For O=C(c1cccc(-n2cnnn2)c1)N1CC=C(c2ccccc2)CC1 the results were LASV entry inh -2%, Cruzain inh Det 5.5%, Cruzain noTriton -4%, StopGo reporter -18%, MARV entry inh inconclusive, RE007 growth inh 8%, NS1 function inh -52% and SARS PLP yeast 17%.
Screening COC(=O)c1ccccc1Nc1ccccc1 returned LASV entry inh -7%, Cruzain inh Det -1.9%, Cruzain noTriton -4%, StopGo reporter -7%, MARV entry inh -35%, RE007 growth inh -5%, NS1 function inh 2% and SARS PLP yeast 6%.
For O=C(NC1CCN(Cc2ccc(Cl)cc2Cl)CC1)c1ccccc1 the results were LASV entry inh inconclusive, StopGo reporter inconclusive, MARV entry inh inconclusive, RE007 growth inh -6%, NS1 function inh 2% and SARS PLP yeast 1%.
For CCOC(=O)c1c(S(=O)(=O)N2CCCC(C(=O)Nc3cccc(Cl)c3)C2)c(C)n(C)c1C (stereo not given) the results were LASV entry inh -14%[46.1 µM], Cruzain inh Det 2.6%, Cruzain noTriton -7% and StopGo reporter -10%.
Screening Cc1nc2ccccc2cc1C(=O)NCc1ccc(F)cc1 returned LASV entry inh 3%, StopGo reporter -22%, MARV entry inh -22%[14.2 µM], RE007 growth inh 15%, NS1 function inh 2% and SARS PLP yeast -3%.
Cc1ccc(CNC(=O)Cn2nnc(C(=O)Nc3ccc(Br)cc3)c2N)cc1 was read as LASV entry inh 0%[46.1 µM], StopGo reporter 9%, MARV entry inh -21%[46.1 µM], RE007 growth inh -5%, NS1 function inh 1% and SARS PLP yeast 3%.
Screening CCOC(=O)N1CCN(C(=O)c2ccc(CSc3ccc(Cl)cc3)cc2)CC1 returned LASV entry inh inconclusive, StopGo reporter 25µM*, MARV entry inh inconclusive, RE007 growth inh 6%, NS1 function inh -9% and SARS PLP yeast 0%.
Screening Cn1c(=O)[nH]c2cc3ccccc3cc21 returned LASV entry inh -2%, Cruzain inh Det -5.2%, Cruzain noTriton 7%, StopGo reporter 0%, MARV entry inh 25%, RE007 growth inh 3%, NS1 function inh 0% and SARS PLP yeast 19%.
`O=C1N(C2CCCC2)C[C@@H]2C[C@@H](c3cccn3-c3ccccn3)N3CCC[C@@]123` gave LASV entry inh 10%, StopGo reporter -4%, MARV entry inh inconclusive, RE007 growth inh -8%, NS1 function inh -6% and SARS PLP yeast -1%.
CN(C)CCOCCSc1ccc(Cl)cc1 was read as LASV entry inh -18%, Cruzain inh Det 8.0%, Cruzain noTriton -4%, StopGo reporter -3%, MARV entry inh -1%, RE007 growth inh -8%, NS1 function inh inconclusive and SARS PLP yeast 2%.
`O=C(CCSC1=NCCCN1)c1ccc(F)cc1` gave LASV entry inh 3%[46.1 µM], StopGo reporter inconclusive, MARV entry inh 27% and RE007 growth inh inconclusive.
COCc1cc(OC(=O)N(C)C)nc2c1c(C)nn2C was read as LASV entry inh 11%, StopGo reporter -15%, MARV entry inh 7%&7%, RE007 growth inh 6%, NS1 function inh 5% and SARS PLP yeast 2%.
`CCN(CC)C(=O)C1(P(=O)(c2ccccc2)c2ccccc2)CCC1` gave LASV entry inh -1%[46.1 µM], StopGo reporter 6%, MARV entry inh inconclusive, RE007 growth inh -24%, NS1 function inh -2% and SARS PLP yeast 1%.
For C[C@]12CCC3C(CC[C@H]4C[C@H](O)CC[C@]34C)C1C[C@@H](O)[C@H]2O (stereo not given in full) the results were LASV entry inh -18%[46.1 µM], StopGo reporter -9%, MARV entry inh 6%[46.1 µM] and RE007 growth inh 5%.
Screening Cc1ccc(-n2c(Cn3ncc4ccccc4c3=O)n[nH]c2=S)cc1 returned StopGo reporter -7%, RE007 growth inh 1%, NS1 function inh 1% and SARS PLP yeast -1%.
Screening O=C(NC(=S)NC(=O)c1ccccc1F)c1ccccc1F returned LASV entry inh 2%, Cruzain inh Det -7.3%, Cruzain noTriton -22%, StopGo reporter 27%, MARV entry inh -3%, RE007 growth inh -1%, NS1 function inh 0% and SARS PLP yeast -56%.
Screening CC1(C)NC(=O)N(CC(O)CN2C(=O)CCC2=O)C1=O (stereo not given) returned LASV entry inh -2%, Cruzain inh Det 3.0%, Cruzain noTriton 1%, StopGo reporter -22%, MARV entry inh -6%, RE007 growth inh 9%, NS1 function inh 5% and SARS PLP yeast 4%.
`Cc1ccc2ccc3cc(C(=O)Nc4ccc(C)c(F)c4)nc3c2[nH]1` gave LASV entry inh inconclusive, Cruzain inh Det 8.9µM*, Cruzain noTriton inconclusive and StopGo reporter 3%.
Screening COc1ccc(C)cc1S(=O)(=O)NCc1cccs1 returned LASV entry inh 17%, StopGo reporter 80%[activator], MARV entry inh 0%[46.1 µM], RE007 growth inh 5%, NS1 function inh 1% and SARS PLP yeast 7%.
Screening CCN(CC)S(=O)(=O)c1ccc(N2CCN(S(=O)(=O)c3ccccc3C#N)CC2)nc1 returned LASV entry inh -5%, Cruzain inh Det -0.3%, Cruzain noTriton 7%, StopGo reporter -8%, MARV entry inh inconclusive, RE007 growth inh 0%, NS1 function inh 1% and SARS PLP yeast 3%.
`CCC(=O)N1CCc2cc(S(=O)(=O)NC(Cc3ccccc3)C(=O)NC3CCCCC3C)ccc21` (stereo not given) gave LASV entry inh -2%, Cruzain inh Det 1.9%, Cruzain noTriton 17%, MARV entry inh -20%, RE007 growth inh 16%, NS1 function inh 9% and SARS PLP yeast 25%.

An unsorted share of the library; overall some 4.7% were active at least once.
